# Biofilm kill mix = clotrimazole potentiators killing C. albicans biofilm, primary screen, 4-compound mixtures. C. albicans biofilm persisters + clotrimazole, fluorescence viability; primary screen in compound mixtures of four per well. inhibition, % at 7.6 µM. hit rate 0.02% among 120,000;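 active = inhibition above 30.3% in the primary screen of four-compound pools, then above 30% when the compound was retested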;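 note: compounds exposed to preformed 24 h biofilms for 48 h; the number belongs to the whole pool; some results filed as inactive read as strong as hits; inactives centre near 12; 0% = biofilm with clotrimazole alone and 100% = kill control; retested singly at about 60 µM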
#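 Test system: C. albicans CAF4-2 wild-type biofilms; buffer or medium: RPMI/MOPS medium, pH 7.0; schedule: 24 h biofilm formation, then 48 h compound exposure, 37 °C; detection: Alamar Blue fluorescence; measure: percent inhibition of biofilm viability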
# Active calls of the source: *. A portion of the library; rates above refer to the full screens.
SMILES,Biofilm kill mix
CC(C)CC(=O)c1c[nH]c(C(=O)O)c1,13
CCCCOc1ccc(C(=O)OCC(=O)Nc2cc(C)on2)cc1,-2
CN(C)c1cc[n+](CC(=O)c2ccc(-c3ccccc3)cc2)cc1,11
CN1CCN(c2c(F)cc3c(=O)c(C(=O)O)cn4c3c2OCN4C)CC1,7
COc1ccc(S(=O)(=O)N2CCCC(C(F)(F)F)C2)cc1 (stereo unspecified),13
O=C(c1cnccn1)N(Cc1cccs1)C1(C(=O)NC2CCCC2)CCCCC1,10
CCCC(=O)Nc1nnc(-c2ccccc2)o1,15
O=c1[nH]c(CN2CCN(c3ccc(O)cc3)CC2)nc2scc(-c3ccc(Cl)cc3)c12,11
NNC(=O)c1ccc(COc2ccc3ccccc3c2)cc1,19
Cc1nc(Nc2ccc(F)cc2)nc(Nc2ccc(F)cc2)c1[N+](=O)[O-],2
COc1cc(C(C(=O)NC2CCCCC2)N(Cc2ccco2)C(=O)c2cnccn2)cc(OC)c1OC (stereo unspecified),22
COc1ccc(NC(=S)Nc2cccc(Cl)c2)cc1OC,19
COc1cc2c(cc1NC(=O)CSc1ccccc1)oc1ccccc12,17
CCSc1cc(N2CCCC2)nc(-c2ccccc2Cl)n1,18
COc1ccc(C(=O)NCCN2CCOCC2)cc1OC,12
Cn1c(=O)c2c(=O)cc(N)[nH]c2n(C)c1=O,21
CCOC(=O)C(=CNc1ccc(C(F)(F)F)cc1Cl)C(=O)OCC,17
COc1ccc(CN(C)CC(=O)NC(C)c2ccccc2)c(OC)c1 (stereo unspecified),11
CCc1ccc2[nH]c3nc(C)cc(C)c3c(=O)c2c1,13
Cc1ccnc(SCCn2c(N3CCN(C)CC3)nc3c2c(=O)n(C)c(=O)n3C)n1,14
CCN1CCN(c2ccc(N=Cc3ccc(O)cc3O)cc2)CC1,12
C=CCn1c(=O)c2ccccc2n2nnc(C(=O)OCC)c12,13
CC1CSc2ccccc2NC1=S (stereo unspecified),20
O=C(CCCCl)NC1=NN(c2ccccc2)C(=O)C1,15
Cc1ccc(NC(=O)COC(=O)c2ccc([N+](=O)[O-])s2)c(C)c1,13
C=CCn1c(SCc2nc3sc(C(=O)O)c(C)c3c(=O)[nH]2)nnc1-c1ccccc1,27
O=C(Nc1nnc(CCN2CCCCC2)s1)c1ccccc1,12
CCOCCn1c(-c2ccccc2)nc2ccccc21,23
COc1ccc(NC(=O)c2ccc(NC(=O)C(C)C)cc2)c([N+](=O)[O-])c1,13
CN(CCn1ccnc1)Cc1cn(Cc2ccccc2)nc1-c1ccc2c(c1)OCO2,14
COc1ccc(-c2nc(N)ncc2-c2csc(C)n2)c(O)c1OC,14
CN(Cc1ccccc1)c1ccc(N2C(=O)CCCC2=O)cc1[N+](=O)[O-],10
COc1ccccc1OCCn1c(=O)oc2ccc(C)cc21,17
Cn1nc(C(=O)NCc2cccs2)c2ccccc2c1=O,15
C/C(CC(=O)Nc1cccc(Cl)c1Cl)=N\NC(=O)c1ccccc1C,-1
CC(C)(C)C(=O)Nc1nc(NC(=O)C(C)(C)C)nc(-c2ccccc2Cl)n1,14
Nc1nnc(SCC(=O)c2ccc3c(c2)NC(=O)CO3)s1,11
Cc1cc(C)c(CSc2ncnc3nc[nH]c23)c(C)c1,19
CCCN(C(=O)c1ccco1)c1nnc(-c2cccc(C)c2)s1,15
O=C(CC1SC(=Nc2ccc(O)cc2)NC1=O)Nc1ccccc1 (stereo unspecified),16
CCSC1=C(C#N)C(c2ccc(C)o2)CC(=O)N1 (stereo unspecified),23
Cc1noc(C)c1S(=O)(=O)Nc1ccc(C(=O)N2CCC(C)CC2)cc1,2
COC(C(=O)Nc1cccc([N+](=O)[O-])c1)c1ccccc1 (stereo unspecified),21
COc1ccc(-c2nsc(SCC(=O)NCC3CCCO3)n2)cc1 (stereo unspecified),4
CCCCC1=CC2=CC(=O)C(C)(OC(=O)CC)C(=O)C2=CN1C1CCCC1 (stereo unspecified),6
O=C(Nc1ccc(F)cc1)Nc1ccc(Oc2ncnc3cc(Cl)ccc23)nc1,27
O=C(CSc1ncnc2c1cnn2CCO)Nc1cccc(C(F)(F)F)c1,11
CC1CCC(NC(=O)C2CC(=O)N(c3ccc4c(c3)OCCO4)C2)CC1 (stereo unspecified),6
O=S(=O)(Nc1nc2ccccc2nc1NCc1ccco1)c1ccc(F)cc1,25
COc1cc(OC)c(OC)cc1/C=N/NC(=O)c1cccc(S(=O)(=O)N2CCOCC2)c1,8

# Other results follow:
SMILES,Biofilm kill mix
CCOC(=O)C1C(=O)C=C(c2ccc(C)cc2)CC1c1ccccc1 (stereo unspecified),14
COC(=O)c1ccccc1NC(=O)c1ccc(F)cc1,13
O=C(CSc1cccc[n+]1[O-])N1CCCc2ccccc21,4
CSc1ncccc1C(=O)OCC(=O)c1cccs1,-3
COc1ccc(C)cc1NC(=O)c1cc2c(s1)CCC2,17
OC(CNC1CCCC1)COc1ccc(-c2ccccc2)cc1 (stereo unspecified),14
CC(=O)c1ccc(NC(=O)CSc2nnc(Cn3cnc4ccccc43)o2)cc1,4
COc1ccc(S(=O)(=O)CCC(=O)Nc2ccc(OC)cc2OC)cc1,12
COCC(=O)Nc1ccc(OC)c(Cl)c1,2
Cc1ccnc(NC(=O)Cc2ccc([N+](=O)[O-])cc2)c1,3
Cc1cc(Cl)ccc1NC(=S)N(CCCN1CCOCC1)Cc1cccs1,16
COC(=O)c1c(S(C)(=O)=O)nc(-c2ccccc2)[nH]c1=O,16
CC(C)NC(=O)c1ccccc1NC(=O)C1COc2ccccc2O1 (stereo unspecified),12
CC(=O)Nc1ccc(C(C#N)c2ccccc2)cc1 (stereo unspecified),15
CN(C1=NC(=O)C(CC(=O)O)S1)c1ccc(O)cc1 (stereo unspecified),9
CCCCOC(=O)c1ccc(NC(c2ccc(C)cc2)P(=O)(OC)OC)cc1 (stereo unspecified),1
CN(NC1OC(=O)c2ccccc21)c1ccc(Cl)cc1[N+](=O)[O-] (stereo unspecified),3
CC(C)Cn1c(N)c(C(=O)COC(=O)c2ccc(Cl)cc2)c(=O)n(C)c1=O,-1
CNC(=O)NC(=O)COC(=O)/C=C/c1cccc(Br)c1,27
Cc1ccc(CCNC(=O)CS(=O)Cc2nc(-c3cccs3)oc2C)cc1 (stereo unspecified),20
Cc1nnc(N/N=C/C2CC=CCC2)[nH]c1=O (stereo unspecified),7
O=C(Nc1ccc(F)cc1F)Nc1csc2ccccc12,13
COc1ccc(N2CCN(C(=O)CCNC(=O)c3ccc(C(C)(C)C)cc3)CC2)cc1,0
CCOP(=O)(OCC)C(NC(C)=O)C(=O)c1ccccc1 (stereo unspecified),4
CCN(CC)c1ccc(-c2n[nH]c(=S)n2-c2ccccc2C)cc1,5
CCOC(=O)N1CCN(CCC(=O)Nc2cc(OC)cc(OC)c2)CC1,8
CC[n+]1c(C)cc2c(sc3ccccc32)c1C,7
NC(=O)c1nsc(C(=O)N(c2cccc(F)c2)C(C(=O)NCC2CCCO2)c2cccs2)c1N (stereo unspecified),12
C/C(N)=C(/C#N)C(=O)COC(=O)Cc1coc2ccc3ccccc3c12,6
CCOc1cc(/C=C(/NC(C)=O)C(=O)O)cc(Cl)c1OCc1cccc(Br)c1,14
Cc1cccc(Cl)c1NC(=S)NCCc1ccccn1,24
CN(C)c1ccc(P(=O)(OC2CCCCC2)C(O)c2ccncc2)cc1 (stereo unspecified),19
COC(=O)/C(C#N)=C/c1c(Oc2cccc(C)c2C)nc2ccccn2c1=O,20
CCC(c1nnnn1Cc1ccc(OC)cc1)N1CCN(c2ccc(OC)cc2)CC1 (stereo unspecified),7
NC(=O)c1sc2nc3c(c(-c4cccnc4)c2c1N)CCC3,4
O=C(CSc1nnnn1Cc1ccccc1)c1ccccc1F,8
Cc1nn2c(N)c(C#N)cnc2c1-c1ccccc1,9
CCOCCCNC(=O)CN1C(=O)/C(=C\c2ccc(C)cc2)Sc2ccccc21,13
CC(=O)NS(=O)(=O)c1ccc(NC(=O)c2ccc(Cl)cc2[N+](=O)[O-])cc1,16
CSc1nsc(/C=C/Nc2ccc(F)cc2)c1C#N,19
Cc1cc(C)cc(NC(=O)c2ccc(Cn3nc(C)c(Cl)c3C)o2)c1,8
CCOC(=O)C1(CCc2ccccc2)CCN(Cc2cccc3nccnc23)CC1,18
Cc1nc2ccccc2cc1C(=O)NCc1ccco1,13
COc1ccc(CNC(=O)CSc2nc(C)cs2)cc1,12
O=c1[nH]nc(SCc2ccccc2)n1C1CC2C=CC1C2 (stereo unspecified),23
CCCN(Cc1cc(=O)[nH]c2ccccc12)C(=O)CC,14
Cc1ccc(OCCC(=O)Nc2ccc(C)c(F)c2)cc1,-3
CN(CCOc1cccc(C(F)(F)F)c1)Cc1ccccc1,13
O=C(COC(=O)CNC(=O)c1sc2ccccc2c1Cl)Nc1c(Cl)cc(Cl)cc1Cl,11
CCOc1ccc(NC(=O)c2cccnc2SC)cc1,15

# Other results
SMILES,Biofilm kill mix
O=C(Nc1ccc2oc(=O)ccc2c1)c1ccccc1[N+](=O)[O-],5
O=C1OC(Nc2ccc(Br)cc2F)c2ccccc21 (stereo unspecified),7
C/C(=N\NC(=O)c1ccccc1[N+](=O)[O-])c1ccc(Br)s1,17
O=C(Cc1ccccc1Cl)NC1(O)C(=O)c2ccccc2C1=O,29
CC(=O)Nc1ccc(S(=O)(=O)N2CCCC2C(=O)Nc2ccc3c(c2)OCCO3)cc1 (stereo unspecified),28
N=C1C(c2ccccc2)=C(O)CN1c1cccc2ccccc12,19
C/C(=N/O)c1ccc(Oc2cnccn2)cc1,6
Cc1cc(C(=O)N/N=C/c2c[nH]c3ccccc23)c(C)o1,15
COc1cccc(C(=O)Nc2sc(C(C)C)cc2C(N)=O)c1OC,11
NS(=O)(=O)c1ccc(Cl)c(C(=O)Nc2ccccc2[N+](=O)[O-])c1,-9

# Reprinted at random: 10 records from the list, in no set order.
SMILES,Biofilm kill mix
Cc1cc(C(=O)N/N=C/c2c[nH]c3ccccc23)c(C)o1,15
Cc1cccc(Cl)c1NC(=S)NCCc1ccccn1,24
C/C(CC(=O)Nc1cccc(Cl)c1Cl)=N\NC(=O)c1ccccc1C,-1
CCCN(Cc1cc(=O)[nH]c2ccccc12)C(=O)CC,14
O=C(Nc1ccc2oc(=O)ccc2c1)c1ccccc1[N+](=O)[O-],5
CC(=O)c1ccc(NC(=O)CSc2nnc(Cn3cnc4ccccc43)o2)cc1,4
COc1cccc(C(=O)Nc2sc(C(C)C)cc2C(N)=O)c1OC,11
CCOC(=O)C1(CCc2ccccc2)CCN(Cc2cccc3nccnc23)CC1,18
COCC(=O)Nc1ccc(OC)c(Cl)c1,2
CCC(c1nnnn1Cc1ccc(OC)cc1)N1CCN(c2ccc(OC)cc2)CC1 (stereo unspecified),7

# Remaining list, next part:
SMILES,Biofilm kill mix
O=C1CN(c2nc3nonc3nc2N2CCCCC2)CCN1,11
S=c1[nH]nc(COc2ccc3ccccc3c2)o1,13
Cc1onc(-c2ccccc2)c1C(=O)c1c[nH]c(C(=O)NCCCN2CCOCC2)c1,11
Cc1ccc(NC(=O)Cc2ncon2)cc1Cl,17
Cc1nn(Cc2ccccc2)c(C)c1/C=N/NC(=O)c1ccccc1O,15
CC(=O)CCc1c(C)nc2ccc(C)cc2c1Cl,8
Cc1cc(C)c(NC(=S)NC(=O)c2c(Cl)c(C)nn2C)c([N+](=O)[O-])c1,-11
O=C(Nc1ncc(S(=O)(=O)c2ccc([N+](=O)[O-])cc2)s1)c1cccnc1,14
Cc1ccc(S(=O)(=O)CCSc2nccn2C)cc1,7
CCN(CC)CCN(C(=O)CCOc1ccccc1)c1nc2ccc(F)cc2s1,7

# 7 structures already listed, sorted by length of the SMILES, lowest first:
SMILES,Biofilm kill mix
Cc1ccc(NC(=O)Cc2ncon2)cc1Cl,17
S=c1[nH]nc(COc2ccc3ccccc3c2)o1,13
O=C1CN(c2nc3nonc3nc2N2CCCCC2)CCN1,11
Cc1nn(Cc2ccccc2)c(C)c1/C=N/NC(=O)c1ccccc1O,15
Cc1onc(-c2ccccc2)c1C(=O)c1c[nH]c(C(=O)NCCCN2CCOCC2)c1,11
O=C(Nc1ncc(S(=O)(=O)c2ccc([N+](=O)[O-])cc2)s1)c1cccnc1,14
Cc1cc(C)c(NC(=S)NC(=O)c2c(Cl)c(C)nn2C)c([N+](=O)[O-])c1,-11

# New compounds follow
SMILES,Biofilm kill mix
CC(=O)c1sc(NC(=O)c2cccc(C)c2)nc1C,4
CCC(=O)c1ccc(OCC(=O)NCCc2ccccn2)cc1,17
CCOC(=O)C1(Cc2ccccc2Cl)CCN(C(=O)c2cnccn2)CC1,10
CC1(C)CSC(=NCc2ccccc2)N1C(=O)c1cccc([N+](=O)[O-])c1,19
Cn1cc(NC(=O)Nc2ccc(C(F)(F)F)cc2)c(C(F)(F)F)n1,8
O=C1NCCN(Cc2cccc(Oc3ccccc3)c2)C1CC(=O)N1CCCO1 (stereo unspecified),15
COc1cccc(C(=O)N2CCN(Cc3ccccc3[N+](=O)[O-])CC2)c1,19
CCOC(=O)c1cn(Cc2ccccc2)nn1,18
O=C(N/N=C/c1ccc(O)cc1)c1cc[n+](Cc2ccccc2)cc1,14
C[n+]1cccc(C(=O)NCC2CCCO2)c1 (stereo unspecified),12
O=C(OCCNc1nc(-c2ccccc2)nc2ccccc12)c1ccncc1,7
CC1(C(=O)NNC(=O)c2ccc(=O)oc2)CC1Br (stereo unspecified),15

# By substructure: the compounds so far with a tert-butyl group (two)
SMILES,Biofilm kill mix
CC(C)(C)C(=O)Nc1nc(NC(=O)C(C)(C)C)nc(-c2ccccc2Cl)n1,14
COc1ccc(N2CCN(C(=O)CCNC(=O)c3ccc(C(C)(C)C)cc3)CC2)cc1,0

# Assay outcomes as filed in PubChem.
